From PubChem
VDR inh: Inhibitors of the vitamin D receptor (VDR): qHTS; Vitamin D3 receptor (Homo sapiens), P11473; VDR-SRC2-3 peptide fluorescence polarization, 2 h; 400,000 tested, 0.93% active; Potency, µM, without a hit: max response, negative = inhibition, actives largely listed as inhibitors; active means well fitted inhibition curve with a large enough effect; inconclusive means small, poorly fitted or top-dose-only effect, or another doubt; inactive means no such curve, though single readings can be large or run the other way; further: series mostly up to about 120 µM
Target sequence (P11473 whole entry, looked up): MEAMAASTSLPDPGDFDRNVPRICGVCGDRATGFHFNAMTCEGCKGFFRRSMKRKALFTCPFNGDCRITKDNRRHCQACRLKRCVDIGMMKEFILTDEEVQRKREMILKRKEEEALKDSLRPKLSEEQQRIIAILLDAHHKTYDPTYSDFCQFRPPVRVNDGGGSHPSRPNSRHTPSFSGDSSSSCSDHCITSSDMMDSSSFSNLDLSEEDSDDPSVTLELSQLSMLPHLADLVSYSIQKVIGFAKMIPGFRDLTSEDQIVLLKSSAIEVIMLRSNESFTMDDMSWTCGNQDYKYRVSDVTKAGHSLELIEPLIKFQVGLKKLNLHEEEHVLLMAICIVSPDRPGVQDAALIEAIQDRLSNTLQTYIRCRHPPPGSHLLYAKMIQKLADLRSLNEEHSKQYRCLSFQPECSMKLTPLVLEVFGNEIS
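Signal is fluorescence polarization, reporting how far test compounds block the interaction of VDR with the SRC2-3 coregulator peptide after a 2 h room-temperature incubation.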
Numbers without * were called inactive; ? = inconclusive; & = joins results of further samples; [ ] = remark or other dose. On the % scale 0 is the no-effect control and ±100 the full control effect; potency means the concentration at half of the fitted maximal effect. Some of the compounds tested. The share of hits here may be higher or lower than overall.

SMILES	VDR inh
Fc1ccc(-c2csc(-c3ccc(C4SCCS4)cc3)n2)cc1F	-22%
CCOC(=O)Cn1c(-c2ccccn2)nc2ccccc21	3%
COc1ccc(C2CC(=O)c3c(O)cc(O)cc3O2)c(CC=C(C)C)c1OC (stereo unspecified)	2%
OCc1ccccc1N=Cc1cccnc1	8%
O=C(c1cc(-c2ccccc2)on1)N1CCN(c2ccccc2)CC1	4%
O=C(O)c1ccc(NC(=O)c2cc(S(=O)(=O)N3CCCCC3)c(Cl)cc2Cl)cc1	-1%
CC(C)C(=O)Nc1cc(S(=O)(=O)N2CCOCC2)ccc1N1CCCCC1	71µM*
COc1ccc(-c2csc(NC(=O)c3cc(C)on3)c2C#N)cc1OC	13%
COc1ccc2cc(C(N)=O)c(=Nc3ccc(C)cc3)oc2c1	?
Cc1cc(C)cc(NC(=O)Cn2cc(C(=O)c3ccncc3)c(=O)c3cc(C)c(C)cc32)c1	20%
O=C1NC(=Nc2ccccc2)/C(=C/c2ccco2)S1	-11%
CCNC(=S)N1CCN(CCN=CC2=C(O)CC(C)(C)CC2=O)CC1	-7%
COc1cccc(Nc2nc(-c3ccccc3)c3cc(C)ccc3n2)c1	-15%
Cc1ccc(S(=O)(=O)C2(C(=O)Nc3nccs3)CC2)cc1	-10%
O=C(O)CNS(=O)(=O)c1ccc2[nH]c(=O)c(=O)[nH]c2c1	-10%
Cc1cccc(-c2c3c(=O)n(C)c(=O)n(C)c3cn2CC2CCCO2)c1 (stereo unspecified)	1%
Oc1ccc(N2CCN(c3nnnn3-c3ccccc3)CC2)cc1	-17%
O=C1NN(c2ccccc2)C(=O)/C1=C\c1coc2ccc(O)cc2c1=O	22µM*
CNC(=O)C1CC(=O)N(c2ccc(OCC(=O)NCc3ccccc3)cc2)C1 (stereo unspecified)	-13%
CCOc1cc(/C=N/NC(=O)c2ccccc2OCc2ccc(F)cc2)ccc1O	-4%

Sorted by value in VDR inh (lowest first): 3 from the list above
SMILES	VDR inh
Fc1ccc(-c2csc(-c3ccc(C4SCCS4)cc3)n2)cc1F	-22%
O=C(c1cc(-c2ccccc2)on1)N1CCN(c2ccccc2)CC1	4%
Cc1cc(C)cc(NC(=O)Cn2cc(C(=O)c3ccncc3)c(=O)c3cc(C)c(C)cc32)c1	20%

(list continues)
SMILES	VDR inh
COc1ccc(CNc2nc(-c3ccco3)nn2C(=O)CC(C)C)cc1	-1%
N#C/C(=N\Nc1ccc([N+](=O)[O-])cc1)C(=N)N1CCOCC1	-12%
O=C(OCC1CC(c2ccccn2)=NO1)c1ccc(Br)cc1 (stereo unspecified)	0%
COc1cccc(-n2cnc3sc(-c4ccccc4)cc3c2=O)c1	-8%
O=C1CC(c2cc(Br)ccc2F)c2cc3c(cc2N1)CCC3 (stereo unspecified)	6%
Cc1onc(-c2c(F)cccc2Cl)c1C(=O)Nc1sc2c(c1C#N)CCC(C(C)(C)C)C2 (stereo unspecified)	4%
CCOC(=O)C1(C)NC(c2ccc(N(C)C)cc2)C2C(=O)N(c3ccc(OC)cc3)C(=O)C21 (stereo unspecified)	15%
O=C(CNC(=O)c1ccccc1F)NCCCN1CCCC1=O	-11%
c1cncc(-c2nc(-n3ccnc3)c3ccccc3n2)c1	-11%
O=C(Nc1ccccn1)NC1CCCCC1	-5%
CCOc1ccc(-c2noc(COC)n2)cc1OC	12%
CC(c1ccccc1C(O)(c1ccccc1)c1ccccc1)N(C)C (stereo unspecified)	-21%
CN(C)C1=NCC(CSC(=N)N)S1 (stereo unspecified)	-3%
c1ccc(-c2nc(CSc3n[nH]c(-c4cccs4)n3)cs2)cc1	-6%
O=C(COc1ccccc1Cl)NCCCNC(=O)c1cccnc1	13%
Cn1cnnc1SCC(=O)Nc1ccccc1C(=O)NC1CCCC1	-5%
COc1ccc(NC(=O)c2ccc(CNc3c(NC4CCCCC4)c(=O)c3=O)cc2)cc1OC	3%&0%
N#Cc1ccc(N/N=C/c2ccccc2)c([N+](=O)[O-])c1	-19%
CC(C)CC1=NC(C(F)(F)F)(C(F)(F)F)c2c(n(CC(C)C)c(=O)[nH]c2=O)N1	-5%
O=C(Nc1nnc(C2=COCCO2)o1)c1cccc([N+](=O)[O-])c1	-7%
O=C(CCC1N=C2c3ccccc3N=C(SCC(=O)Nc3ccccc3F)N2C1=O)NCc1cccs1 (stereo unspecified)	-15%
COc1ccc2c(c1)-c1ccccc1S(=O)(=O)N(C)C2	-15%
CCn1c(SCC(=O)Nc2ccc(C(C)=O)cc2)nc2ccccc21	21%
Cc1c(C(=O)OCC(=O)NCCc2ccc(S(N)(=O)=O)cc2)oc2ccccc12	4%
CN(C)c1cc[n+](CC(=O)Nc2ccc(Oc3ccccc3)cc2)cc1	12%
Cc1ccc(S(=O)(=O)N(CC(=O)N2CCC(C(N)=O)CC2)Cc2ccc(F)cc2)cc1	4%
CC(C)(C)c1ccc(-c2n[nH]c(=S)n2Cc2ccccc2)cc1	18%
NC(=O)C1CCN(C(=O)c2ccc3c(c2)N(Cc2cccc(Cl)c2)C(=O)c2ccccc2S3(=O)=O)CC1	-6%
CCOC(=O)c1nn(-c2ccccc2)c2nnc(Cc3ccccc3)c(=O)n12	5%
Cc1cc(NS(=O)(=O)c2ccc(NC(=O)c3ccc([N+](=O)[O-])c(Cl)c3)cc2)no1	-17%
CCOC(=O)C1=CNS(=O)(=O)NC1c1ccc(C(=O)OC)cc1 (stereo unspecified)	-2%
O=C(c1ccc(F)cc1)N1CCN(c2ccc([N+](=O)[O-])c(N3CCCCC3)c2)CC1	-1%
COc1ccc(N2C(=O)CSC2c2ccc3c(c2)OCO3)c(OC)c1 (stereo unspecified)	0%
Cc1ccc(N2C(=O)CC(C)CC2=O)cc1	5%
COc1ccc(C2=NC3(CCCCCC3)N(CC(=O)Nc3cccc(Cl)c3)C2=O)cc1	7%
O=[N+]([O-])c1ccc(-c2csc3[n+]2CCS3)cc1	?
CCc1cc2cc3c(cc2nc1SCC(=O)Nc1cc(C)on1)OCO3	8%
CC1(C)S[C@@H]2[C@H](NC(=O)C(NC(=O)N3CCNC3=O)c3ccccc3)C(=O)N2[C@H]1C(=O)O (stereo partly specified)	5%
CCC(C)N1C(=O)CCC1C(=O)N1CCN(c2ccccc2F)CC1 (stereo unspecified)	10%
O=C(O)CNC(=O)CC1S/C(=N/N=C/c2ccccc2O)NC1=O (stereo unspecified)	?

Of the compounds above, 4 contain a COOH group:
SMILES	VDR inh
O=C(O)c1ccc(NC(=O)c2cc(S(=O)(=O)N3CCCCC3)c(Cl)cc2Cl)cc1	-1%
O=C(O)CNS(=O)(=O)c1ccc2[nH]c(=O)c(=O)[nH]c2c1	-10%
CC1(C)S[C@@H]2[C@H](NC(=O)C(NC(=O)N3CCNC3=O)c3ccccc3)C(=O)N2[C@H]1C(=O)O (stereo partly specified)	5%
O=C(O)CNC(=O)CC1S/C(=N/N=C/c2ccccc2O)NC1=O (stereo unspecified)	?

Later entries
SMILES	VDR inh
CC1=C(C(=O)Nc2ccccc2C)C(c2ccco2)n2ncnc2N1 (stereo unspecified)	10%
CC(C)OCCCNC(=O)c1cn(C)c2ccc(S(=O)(=O)N3CCCCCC3)cc2c1=O	2%
Cc1ccccc1C(=O)c1cccn1CC(=O)NCCCN1CCCCC1	-10%
CC1CCN(CCCCOc2ccc(C(=O)c3ccccc3)cc2)CC1	-16%
CC1CC(C)CN(C(=O)c2ccncc2)C1 (stereo unspecified)	-10%
CC1CCCC(NC(=O)COC(=O)c2ccc3ncsc3c2)C1C (stereo unspecified)	1%
O=C(O)c1cccnc1SCc1cn2cc(Cl)ccc2n1	-10%
CN(C)C=Nc1c(C(=O)c2ccccc2)sc2nccc(N(C)C)c12	-1%
CCCCNC(=O)C1CCCN1C(=O)NC1CCCCC1 (stereo unspecified)	4%
CCOC(=O)C1(C(=O)OCC)C(C(=O)c2ccccc2)C1c1ccccc1 (stereo unspecified)	-1%
COc1ccc(N=C/C=C2\C=C(c3ccccc3)OC(C)(C)O2)cc1	-1%
CCOC(=O)c1c(NC(C)=O)sc2c(O)cccc12	10%
COc1ccccc1CNC(=O)COC(=O)/C=C/c1cccs1	-19%
CN(C)CC(O)COc1cccc(OCC(O)CN(C)C)c1 (stereo unspecified)	9%
COc1cc(-c2noc(C)c2C#CC2(N)CCCCC2)cc(OC)c1OC	?
CCOC(=O)C(C)(C)N(Cc1cccc(C)c1)S(=O)(=O)c1ccc(Cl)c([N+](=O)[O-])c1	6%
CCCCC(=O)Nc1cc(OCC)c(NC(=O)c2ccccc2[N+](=O)[O-])cc1OCC	4%
O=C(Cc1ccccc1)N1CCC(c2nc3ccccc3[nH]2)CC1	-13%
COCC(=O)Nc1c(C(=O)Nc2ccc(C)cc2)oc2ccccc12	-7%
O=C1c2ccccc2C(=O)N1CCCCN(C(=O)c1ccc([N+](=O)[O-])cc1)c1ccc(Cl)cc1	-4%
CCOc1ccc2nc(NC(=O)CSc3cn[nH]n3)sc2c1	1%
Cc1cc(OCC(=O)OCC(=O)Nc2cccnc2Cl)ccc1Cl	-11%
COc1cc(/C=N/N=C2/C(=O)Nc3ccccc32)cc(OC)c1O	-12%
Cc1cccc(NC(=O)c2ccc(CN3CCN(Cc4ccccc4)CC3)cc2)c1	1%
COc1ccc(NC(=O)CC2C(=O)N(C)C(=S)N2Cc2ccncc2)cc1 (stereo unspecified)	4%
Cc1oc(-c2cccs2)nc1CN1CCC(c2ccccc2)CC1	30%[activator]
COc1ccccc1Nc1ncnc2c1c(C)c(C)n2CCCN(C)C	6%
O=C(Oc1cccc2c(=O)[nH]ccc12)c1ccccc1	-3%
CCOc1ccc(NC(=O)CN(C)C(=O)c2cc(S(=O)(=O)N3CCCCC3)ccc2Cl)cc1OCC	1%
O=S(=O)(c1ccc(NC(=S)N/N=C/c2cccc(Oc3ccccc3)c2)cc1)N1CCOCC1	-15%
CSc1nnc(NC(=O)c2ccc(C)c(S(=O)(=O)N3CCOCC3)c2)s1	13%
Cn1cc(C(=O)C(=O)N2CCOCC2)c2ccccc21	3%
O=C(Nc1nnc(CC(c2ccccc2)c2ccccc2)s1)c1ccco1	3%
O=C(CN1CCCCCCC1)Nc1cccc(Cl)c1Cl	1%
COc1cc2nc(NC(=O)c3ccc(Cl)cc3)sc(=O)c2cc1OC	-11%
COc1ccc(/C=C/C(=O)Nc2ccc(-n3nncc3-c3ccccc3)cc2)cc1OC	2%
CCCCCCCCNS(=O)(=O)CCNCc1ccco1	-11%
Cc1ccc(NC(=O)c2ccc(C(=O)c3ccccc3)cc2)nc1	-16%
c1cc2c(cc1C1=Nn3c(nnc3C3CCCCC3)SC1)OCO2	-4%
CCOC(=O)C1=C(N)Oc2cc(O)ccc2C1c1ccc(C)cc1 (stereo unspecified)	-2%
NC(=O)COC(=O)c1cccc(S(=O)(=O)N2CCCCC2)c1	-9%
CCc1cccc(C)c1Nc1c(-c2ccc(N(C)C)cc2)nc2ncccn12	?
C/C(N)=C(/C#N)C(=O)COC(=O)C1CCC(C(C)(C)C)CC1 (stereo unspecified)	10%
O=C(NCCCN1CCOCC1)c1ccccc1N1C(=O)[C@@H]2Cc3c([nH]c4ccccc34)C(c3cccc(Cl)c3)N2C1=O (stereo partly specified)	1%
Cc1n[nH]c(C)c1S(=O)(=O)N1CCCC(C(=O)Nc2ccc(Br)cc2)C1 (stereo unspecified)	-13%&-24%
O=C(NCC(c1ccc2c(c1)OCO2)N1CCN(c2ccccc2F)CC1)c1ccccc1F (stereo unspecified)	7%
O=C(c1ccccc1Cc1ccccc1)N1CCN(S(=O)(=O)c2ccccc2Br)CC1	0%
O=C(COc1ccc(C(=O)NCC2CCCO2)cc1)Nc1cccc(C(F)(F)F)c1 (stereo unspecified)	-7%
O=C(NC1CC1)c1ccc(CN(c2ccccc2)S(=O)(=O)c2ccccc2)cc1	-2%
Fc1cccc(/C=N/Nc2cc(N3CCOCC3)ncn2)c1	-8%
COc1ccc(CN2CC(C(=O)NCc3ccccn3)CC2=O)cc1 (stereo unspecified)	1%
Cc1cc(C)cc(OCC(=O)OCC(=O)NCc2ccco2)c1	-2%
CCOC(=O)c1ccc(NC(=O)CC2C(=O)N(c3ccc(F)cc3)C(=O)N2CCCOC)cc1 (stereo unspecified)	2%
CC(C)Oc1cccc(C(=O)NC(=S)Nc2ccc3c4c(cccc24)CC3)c1	-21%
COc1ccccc1CN(C)C(=O)CN1C(=O)c2ccccc2C1=O	-13%
CN(C)C(=S)Nc1ccc([N+](=O)[O-])cc1	-1%
Cc1cccc(C(=O)NN2S(=O)(=O)c3ccccc3S2(=O)=O)c1	6%
CC(C)c1nnc(SCC(=O)Nc2ccc3c(c2)OCO3)n1C	-8%
O=C(Cn1cnc2ccccc2c1=O)c1ccc2ccccc2c1	9%
CCOC(=O)c1cc2[nH]c3ccccc3c2[n+](-c2ccc([N+](=O)[O-])cc2)c1N	-4%
Other results follow:
SMILES	VDR inh
COc1ccc(C(=O)N/C(=C\c2cn(C)c3ccccc23)C(=O)N2CCN(C)CC2)cc1OC	?
Cc1ccc(-c2nn(C)c(=O)c3ccccc23)cc1CNC(=O)c1ccccc1	-6%
Cc1nc(-c2noc(-c3cccc(Cl)c3)n2)c(C(F)(F)F)o1	5%
Cc1ccc(S(=O)(=O)N(C)C)cc1NC(=O)COC(=O)Cc1ccsc1	-22%

Molecules above containing a CF3 group (3):
SMILES	VDR inh
CC(C)CC1=NC(C(F)(F)F)(C(F)(F)F)c2c(n(CC(C)C)c(=O)[nH]c2=O)N1	-5%
O=C(COc1ccc(C(=O)NCC2CCCO2)cc1)Nc1cccc(C(F)(F)F)c1 (stereo unspecified)	-7%
Cc1nc(-c2noc(-c3cccc(Cl)c3)n2)c(C(F)(F)F)o1	5%

Individual results from the list:
Cc1ccc(-c2nn(C)c(=O)c3ccccc23)cc1CNC(=O)c1ccccc1 in VDR inh is entered as -6%
Cc1nc(-c2noc(-c3cccc(Cl)c3)n2)c(C(F)(F)F)o1 in VDR inh is entered as 5%
Cc1ccc(S(=O)(=O)N(C)C)cc1NC(=O)COC(=O)Cc1ccsc1 in VDR inh is entered as -22%
